High-throughput results from PubChem.
Ran importin: inhibitors of Ran–importin-beta complex formation, primary screen, biochemical, CFP-Ran/YFP-importin-beta FRET, RCC1, cell-free (AID 434961). Regulator of chromosome condensation (Homo sapiens) + GTP-binding nuclear protein Ran …. CFP-Ran/YFP-importin-beta FRET, cell-free; stronger effect = higher value. inhibition, %. 7,700 compounds, 0.2% hits;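 active = more than half of the replicate wells above 15% inhibition; inconclusive = exactly half above it; inactive = fewer than half above it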;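 note: 0% = DMSO wells and 100% inhibition = RanGDP control wells on each plate; stock of unstated strength diluted about 400-fold; mean of two wells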
* marks the source's active call; other numbers are inactive results; ? = inconclusive. An excerpt (hit frequency here may not be typical).

CNC[C@H]1Oc2c(NC(=O)NC3CCCCC3)cccc2C(=O)N([C@@H](C)CO)C[C@H]1C
  Ran importin: -3.8

C[C@H](CO)N1C[C@H](C)[C@@H](CN(C)Cc2ccncc2)OCc2cn(nn2)CCCC1=O
  Ran importin: -0.1

C[C@@H]1CCCCO[C@@H](CN(C)C)[C@@H](C)CN([C@H](C)CO)C(=O)c2cc(NC(=O)C3CCCCC3)ccc2O1
  Ran importin: 0.4

Cc1cc(C(=O)Nc2cccc3c2O[C@H](CN(C)S(=O)(=O)c2cccs2)[C@@H](C)CN([C@@H](C)CO)C3=O)n(C)n1
  Ran importin: -4.5

C[C@@H]1CN([C@@H](C)CO)C(=O)Cc2cc(NC(=O)Nc3ccc(F)cc3)ccc2O[C@@H]1CN(C)S(=O)(=O)c1cccs1
  Ran importin: -5.3

C[C@H](CO)N1C[C@H](C)[C@@H](CN(C)Cc2ccc(C(=O)O)cc2)OCCCC[C@H](C)Oc2ccc(NC(=O)C3CCCCC3)cc2C1=O
  Ran importin: 1.1

CNC[C@@H]1Oc2ccc(NS(=O)(=O)c3ccccc3)cc2CC(=O)N([C@@H](C)CO)C[C@H]1C
  Ran importin: 1.3

COc1ccc(CN(C)C[C@H]2Oc3ccc(NC(=O)c4ccncc4)cc3CC(=O)N([C@H](C)CO)C[C@H]2C)cc1
  Ran importin: 6.2

CC(C)NC(=O)N(C)C[C@@H]1Oc2ccc(NS(=O)(=O)c3cn(C)cn3)cc2CC(=O)N([C@@H](C)CO)C[C@@H]1C
  Ran importin: 3.6

C[C@H]1CN([C@@H](C)CO)C(=O)c2cccc(NC(=O)Nc3ccc(C(F)(F)F)cc3)c2O[C@H]1CN(C)C
  Ran importin: -4.5

CC(C)NC(=O)N(C)C[C@@H]1Oc2ccc(NC(=O)CCC(F)(F)F)cc2CC(=O)N([C@@H](C)CO)C[C@@H]1C
  Ran importin: -2.0

COc1ccc(S(=O)(=O)N(C)C[C@@H]2Oc3ccc(NC(=O)Nc4ccc5c(c4)OCO5)cc3C(=O)N([C@H](C)CO)C[C@H]2C)cc1
  Ran importin: ?

C[C@H]1CCCCO[C@@H](CN(C)Cc2ccccc2)[C@@H](C)CN([C@@H](C)CO)C(=O)c2cc(NC(=O)CCCN(C)C)ccc2O1
  Ran importin: -4.2

COc1ccc(CN(C)C[C@@H]2Oc3c(NC(=O)c4ccc(-c5nccs5)cc4)cccc3C(=O)N([C@H](C)CO)C[C@H]2C)cc1
  Ran importin: 3.7

Cc1noc(C)c1NC(=O)N(C)C[C@@H]1Oc2c(cccc2N(C)C)C(=O)N([C@@H](C)CO)C[C@@H]1C
  Ran importin: ?

C[C@H]1CN([C@@H](C)CO)C(=O)c2cc(NC(=O)Nc3ccc4c(c3)OCO4)ccc2O[C@H]1CN(C)C
  Ran importin: -3.0

C[C@@H]1CN([C@@H](C)CO)C(=O)CCCn2cc(nn2)CO[C@H]1CN(C)S(=O)(=O)c1ccc(Oc2ccccc2)nc1
  Ran importin: -3.0

C[C@@H]1CN([C@@H](C)CO)C(=O)c2cc(NC(=O)CCC(F)(F)F)ccc2O[C@@H](C)CCCCO[C@@H]1CN(C)C(=O)CCC(F)(F)F
  Ran importin: 4.3

C[C@@H]1CN([C@@H](C)CO)C(=O)c2cc(NC(=O)Cn3cnnn3)ccc2O[C@H]1CN(C)C(=O)Nc1ccccc1
  Ran importin: 6.9

CC(C)NC(=O)N(C)C[C@@H]1OCc2cnnn2CCCC(=O)N([C@@H](C)CO)C[C@@H]1C
  Ran importin: 2.8

C[C@H]1CN([C@@H](C)CO)C(=O)CCCn2cc(nn2)CO[C@H]1CN(C)C(=O)c1ccccc1
  Ran importin: -1.3

Cc1noc(C)c1NC(=O)N(C)C[C@H]1Oc2ccc(NC(=O)C3CC3)cc2CC(=O)N([C@H](C)CO)C[C@H]1C
  Ran importin: 9.0

C[C@@H]1CCCCO[C@H](CN(C)C)[C@@H](C)CN([C@H](C)CO)C(=O)c2cc(NC(=O)Nc3ccc(F)cc3)ccc2O1
  Ran importin: 3.7

Cc1noc(C)c1NC(=O)N(C)C[C@H]1OCCCC[C@H](C)Oc2ccc(NC(=O)c3ccncc3)cc2C(=O)N([C@H](C)CO)C[C@@H]1C
  Ran importin: -2.5

C[C@H]1CN([C@@H](C)CO)C(=O)c2cc(NC(=O)Nc3cccc4ccccc34)ccc2O[C@H]1CN(C)C(=O)NC1CCCCC1
  Ran importin: 1.7

C[C@@H]1CCCCO[C@H](CN(C)C)[C@H](C)CN([C@@H](C)CO)C(=O)c2cc(NC(=O)Nc3ccccc3)ccc2O1
  Ran importin: 3.0

C[C@H]1CN([C@@H](C)CO)C(=O)CCCn2cc(nn2)CO[C@@H]1CN(C)S(=O)(=O)c1ccc2c(c1)OCCCO2
  Ran importin: 0.2

C[C@@H]1CN([C@@H](C)CO)C(=O)c2cccc(NC(=O)NC3CCCCC3)c2O[C@H]1CN(C)Cc1ccc2c(c1)OCO2
  Ran importin: 3.4

C[C@H](CO)N1C[C@H](C)[C@H](CN(C)Cc2ccc(C(F)(F)F)cc2)Oc2ccc(NC(=O)C3CC3)cc2C1=O
  Ran importin: 3.1

Cc1noc(C)c1NC(=O)Nc1cccc2c1O[C@@H](CN(C)Cc1ccncc1)[C@H](C)CN([C@H](C)CO)C2=O
  Ran importin: -0.4

Five entries from above, ordered by the value under Ran importin, lowest first.
C[C@@H]1CN([C@@H](C)CO)C(=O)Cc2cc(NC(=O)Nc3ccc(F)cc3)ccc2O[C@@H]1CN(C)S(=O)(=O)c1cccs1
  Ran importin: -5.3

CNC[C@H]1Oc2c(NC(=O)NC3CCCCC3)cccc2C(=O)N([C@@H](C)CO)C[C@H]1C
  Ran importin: -3.8

CC(C)NC(=O)N(C)C[C@@H]1Oc2ccc(NS(=O)(=O)c3cn(C)cn3)cc2CC(=O)N([C@@H](C)CO)C[C@@H]1C
  Ran importin: 3.6

C[C@@H]1CCCCO[C@H](CN(C)C)[C@@H](C)CN([C@H](C)CO)C(=O)c2cc(NC(=O)Nc3ccc(F)cc3)ccc2O1
  Ran importin: 3.7

COc1ccc(CN(C)C[C@H]2Oc3ccc(NC(=O)c4ccncc4)cc3CC(=O)N([C@H](C)CO)C[C@H]2C)cc1
  Ran importin: 6.2

More compounds:
C[C@H]1CN([C@@H](C)CO)C(=O)Cc2cc(NC(=O)CCN3CCOCC3)ccc2O[C@H]1CN(C)S(=O)(=O)c1cn(C)cn1
  Ran importin: 0.4

Cc1cc(C(=O)Nc2cccc3c2O[C@@H](CN(C)CC2CC2)[C@@H](C)CN([C@H](C)CO)C3=O)n(C)n1
  Ran importin: 4.8

C[C@@H]1CN([C@@H](C)CO)C(=O)c2cc(NC(=O)c3ccncc3)ccc2O[C@@H](C)CCCCO[C@@H]1CN(C)C(=O)Nc1ccccc1
  Ran importin: 0.6

C[C@H]1CN([C@@H](C)CO)C(=O)c2cccc(NC(=O)Nc3ccc(C(F)(F)F)cc3)c2O[C@H]1CN(C)S(=O)(=O)c1ccc(Cl)cc1
  Ran importin: 3.2

C[C@@H]1CCCCO[C@@H](CN(C)S(=O)(=O)c2ccc(F)cc2)[C@@H](C)CN([C@@H](C)CO)C(=O)c2cc(NC(=O)C3CCCCC3)ccc2O1
  Ran importin: 2.6

CC(C)NC(=O)N(C)C[C@H]1Oc2c(NC(=O)C3CCOCC3)cccc2C(=O)N([C@@H](C)CO)C[C@H]1C
  Ran importin: ?

C[C@H](CO)N1C[C@H](C)[C@@H](CN(C)S(=O)(=O)c2ccc(F)cc2)Oc2ccc(NS(=O)(=O)c3ccccc3)cc2CC1=O
  Ran importin: 3.5

C[C@H](CO)N1C[C@H](C)[C@H](CN(C)C(=O)Nc2ccc(C(F)(F)F)cc2)Oc2c(NS(=O)(=O)c3cccs3)cccc2C1=O
  Ran importin: ?

C[C@H]1CN([C@@H](C)CO)C(=O)c2cc(NC(=O)C3CC3)ccc2O[C@H]1CN(C)C(=O)Nc1ccccc1
  Ran importin: -1.9

C[C@@H]1CN([C@H](C)CO)C(=O)Cc2cc(NC(=O)Nc3cccc4ccccc34)ccc2O[C@@H]1CN(C)C(=O)Nc1cccc2ccccc12
  Ran importin: -2.7

Cc1noc(C)c1NC(=O)Nc1ccc2c(c1)C(=O)N([C@H](C)CO)C[C@H](C)[C@@H](CN(C)C(=O)NC(C)C)OCCCC[C@H](C)O2
  Ran importin: 6.6

C[C@H]1CN([C@@H](C)CO)C(=O)c2cc(N(C)C)ccc2O[C@@H]1CN(C)C(=O)Nc1ccc(F)cc1
  Ran importin: -2.2

C[C@H](CO)N1C[C@H](C)[C@H](CN(C)C(=O)Nc2cccc3ccccc23)Oc2c(NS(=O)(=O)c3ccccc3)cccc2C1=O
  Ran importin: 2.7

COc1ccc(S(=O)(=O)N(C)C[C@H]2Oc3ccc(NS(=O)(=O)c4cn(C)cn4)cc3C(=O)N([C@H](C)CO)C[C@@H]2C)cc1
  Ran importin: -0.7

C[C@H]1CN([C@@H](C)CO)C(=O)c2cc(NS(=O)(=O)c3cn(C)cn3)ccc2O[C@H]1CN(C)C
  Ran importin: -1.8

Cc1noc(C)c1S(=O)(=O)N(C)C[C@H]1Oc2ccc(NS(=O)(=O)c3cn(C)cn3)cc2CC(=O)N([C@@H](C)CO)C[C@@H]1C
  Ran importin: -1.3

C[C@H]1CCCCO[C@H](CN(C)S(=O)(=O)c2cccs2)[C@@H](C)CN([C@@H](C)CO)C(=O)c2cc(N(C)C)ccc2O1
  Ran importin: -1.7

CC(C)NC(=O)Nc1cccc2c1O[C@H](CN(C)Cc1ccccc1)[C@H](C)CN([C@H](C)CO)C2=O
  Ran importin: -0.4

C[C@@H]1CN([C@@H](C)CO)C(=O)c2cc(NC(=O)Nc3ccc(C(F)(F)F)cc3)ccc2O[C@H]1CN(C)C
  Ran importin: ?

COc1ccc(CN(C)C[C@@H]2Oc3ccc(NC(=O)Cc4cn(C)c5ccccc45)cc3C(=O)N([C@H](C)CO)C[C@H]2C)cc1
  Ran importin: 1.8

C[C@H]1CN([C@@H](C)CO)C(=O)c2cc(NC(=O)NC3CCCCC3)ccc2O[C@@H]1CN(C)C(=O)Nc1ccccc1
  Ran importin: -0.4

C[C@H]1CCCCO[C@H](CN(C)C(=O)CCCN(C)C)[C@@H](C)CN([C@@H](C)CO)C(=O)c2cc(NS(=O)(=O)c3cccs3)ccc2O1
  Ran importin: 4.3

C[C@@H]1CN([C@@H](C)CO)C(=O)c2cccc(NS(=O)(=O)c3ccc(Cl)cc3)c2O[C@@H]1CN(C)Cc1ccncc1
  Ran importin: -0.2

C[C@@H]1CN([C@H](C)CO)C(=O)c2cc(NC(=O)Nc3ccc4c(c3)OCO4)ccc2O[C@H]1CN(C)C
  Ran importin: -1.5

C[C@@H]1CN([C@H](C)CO)C(=O)c2cccc(NC(=O)C3CCOCC3)c2O[C@@H]1CN(C)Cc1ccc(Cl)c(Cl)c1
  Ran importin: -3.7

CC(C)NC(=O)Nc1ccc2c(c1)CC(=O)N([C@@H](C)CO)C[C@@H](C)[C@@H](CN(C)C)O2
  Ran importin: -1.4

CNC[C@@H]1Oc2ccc(NC(=O)C3CC3)cc2CC(=O)N([C@@H](C)CO)C[C@@H]1C
  Ran importin: -4.3

C[C@H]1CN([C@@H](C)CO)C(=O)c2cccc(NC(=O)c3cnccn3)c2O[C@@H]1CN(C)CC1CC1
  Ran importin: -2.6

COc1ccc(S(=O)(=O)N(C)C[C@@H]2Oc3ccc(NC(=O)CCN4CCOCC4)cc3C(=O)N([C@H](C)CO)C[C@@H]2C)cc1
  Ran importin: -1.5

C[C@@H]1CN([C@H](C)CO)C(=O)Cc2cc(NS(=O)(=O)c3ccc(Cl)cc3)ccc2O[C@@H]1CN(C)C(=O)NC1CCCCC1
  Ran importin: -4.0

C[C@@H]1CN([C@@H](C)CO)C(=O)c2cccc(NC(=O)c3ccncc3)c2O[C@H]1CN(C)CC1CC1
  Ran importin: 7.3

C[C@H]1CN([C@@H](C)CO)C(=O)c2cc(NC(=O)Cc3ccccc3)ccc2O[C@@H]1CN(C)C(=O)NC1CCCCC1
  Ran importin: 5.0

C[C@@H]1CN([C@H](C)CO)C(=O)c2cc(NS(C)(=O)=O)ccc2O[C@@H]1CN(C)C(=O)Nc1ccc2c(c1)OCO2
  Ran importin: -5.4

COc1ccc(CN(C)C[C@@H]2Oc3ccc(NS(=O)(=O)c4ccc(OC)cc4)cc3CC(=O)N([C@H](C)CO)C[C@@H]2C)cc1
  Ran importin: 5.2

C[C@H]1CN([C@@H](C)CO)C(=O)c2cc(NC(=O)c3ccncc3)ccc2O[C@H]1CN(C)C
  Ran importin: -1.3

C[C@@H]1CN([C@@H](C)CO)C(=O)c2cccc(NC(=O)c3ccc(-c4nccs4)cc3)c2O[C@H]1CN(C)CC1CC1
  Ran importin: 1.8

Cc1noc(C)c1S(=O)(=O)N(C)C[C@@H]1OCCCC[C@@H](C)Oc2ccc(NC(=O)CCCN(C)C)cc2C(=O)N([C@H](C)CO)C[C@@H]1C
  Ran importin: -4.1

C[C@@H]1CN([C@H](C)CO)C(=O)c2cc(NS(=O)(=O)c3ccccc3)ccc2O[C@@H](C)CCCCO[C@@H]1CN(C)C(=O)CCCN(C)C
  Ran importin: 0.7

C[C@H]1CN([C@@H](C)CO)C(=O)c2cccc(NC(=O)Nc3cccc4ccccc34)c2O[C@H]1CN(C)C(=O)Nc1ccc(F)cc1
  Ran importin: -4.3

C[C@H](CO)N1C[C@H](C)[C@H](CN(C)C(=O)NC2CCCCC2)Oc2ncc(C#Cc3ccccc3)cc2C1=O
  Ran importin: ?

C[C@@H]1CN([C@@H](C)CO)C(=O)c2cccc(N(C)C)c2O[C@@H]1CN(C)C(=O)Nc1cccc2ccccc12
  Ran importin: 5.9

COc1ccc(S(=O)(=O)Nc2ccc3c(c2)C(=O)N([C@@H](C)CO)C[C@@H](C)[C@@H](CN(C)S(=O)(=O)c2cccs2)O3)cc1
  Ran importin: -0.9

C[C@@H]1CN([C@H](C)CO)C(=O)c2cccc(NS(=O)(=O)c3cn(C)cn3)c2O[C@@H]1CN(C)C
  Ran importin: -7.3

C[C@@H]1CN([C@H](C)CO)C(=O)c2cc(NC(=O)Nc3ccc(F)cc3)ccc2O[C@@H](C)CCCCO[C@H]1CN(C)C
  Ran importin: -2.0
